gsp antag: antagonists of gsp mutant (McCune-Albright syndrome) | actives 0.4% (n = 340,000) | Potency, µM (highest dose often 76.9 µM), inactives show at the highest dose activity change, negative = inhibition, hits mostly inhibitors | gsp-mutant cells, cAMP HTRF, 30 min; control for the full effect not named in the record | AID 624288; active = falling curve of any shape with a large fitted effect; inconclusive = falling curve, mostly with a smaller effect; inactive = flat or rising curve; cell line not stated here;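 note: intracellular cAMP measured with PDE inhibitor Ro 20-1724 present during compound exposure; potency is the fitted concentration of half-maximal effect; % is set by controls: 0 for no effect and ±100 for the full control effect; nearly all actives have a fitted effect of over 65% in size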
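G418-selected cells were plated in DMEM/10% FBS for 16-24 h at 37C, then treated with compounds plus the PDE inhibitor […] (300 uM solution added) for 30 min at 37C. Intracellular cAMP was measured by HTRF after 30 min lysis at room temperature.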
TRPML1 ag: human mucolipin-1 channel agonism; Q9GZU1; TRPML1-expressing cells, Ca2+ dye fluorescence, FDSS; host cell line not named in the record; reference of the full effect not given here; activation, % (test concentration not listed); actives 0.12% (n = 410,000); AID 624414; in the data active = activation above about 50%; inconclusive = about 30% to 50%; inactive = below about 30%; note: 0% is about no effect; the text of the record puts the active cut at 80%
Target sequence (Q9GZU1 whole entry, looked up): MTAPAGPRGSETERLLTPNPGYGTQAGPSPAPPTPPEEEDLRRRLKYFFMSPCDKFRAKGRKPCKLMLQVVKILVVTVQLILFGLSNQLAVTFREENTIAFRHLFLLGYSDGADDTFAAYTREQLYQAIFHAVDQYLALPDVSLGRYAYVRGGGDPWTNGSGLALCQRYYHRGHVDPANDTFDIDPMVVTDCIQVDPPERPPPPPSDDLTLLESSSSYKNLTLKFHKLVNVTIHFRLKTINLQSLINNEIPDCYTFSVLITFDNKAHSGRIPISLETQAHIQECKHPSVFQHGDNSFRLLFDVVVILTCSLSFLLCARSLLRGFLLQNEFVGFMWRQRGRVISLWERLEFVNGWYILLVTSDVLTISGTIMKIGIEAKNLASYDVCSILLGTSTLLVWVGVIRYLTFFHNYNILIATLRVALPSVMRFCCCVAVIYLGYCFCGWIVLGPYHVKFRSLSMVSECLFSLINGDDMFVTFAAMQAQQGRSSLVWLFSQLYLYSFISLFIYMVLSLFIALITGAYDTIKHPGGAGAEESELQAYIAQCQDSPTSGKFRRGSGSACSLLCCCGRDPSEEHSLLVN
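Cells: TRPML1-DL, 1X Tet inducer, ~16 h at 37 degrees C/5% CO2. Dye: ABD Ca8 no-wash + quencher, 45-90 min RT. Read: 10 s baseline, compound add, 110 s agonist phase; 54-4 EC80 (4uM final), 110 s antagonist phase.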
TRPML1 blocker: blocks the human TRPML1 channel. Q9GZU1. TRPML1-inducible cells, Ca2+ dye fluorescence, FDSS; stronger effect = lower value; inhibition of EC80 agonist-evoked calcium signal. activity change, negative = inhibition, % (concentration not given with the values). actives 0.02% (n = 390,000). AID 624415; in the data active means activity change below about -50%; inconclusive means about -30% to -50%; inactive means above about -30%;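 note: stimulus is agonist 54-4 at its EC80 concentration; % is set by controls: 0 for no effect and ±100 for the full control effect; compound concentration not given in the record; the text of the record puts the active cut at -80%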
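Tet-induced TRPML1-DL cells loaded with Ca8 no-wash calcium dye were read kinetically on FDSS. Compound addition was followed by EC80 agonist 54-4 (4 uM final); inhibition was read over 110 s.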
gsp ag: gsp mutant agonism | AID 624287 | actives 0.13% (n = 340,000) | gsp mutant cells, cAMP HTRF, 30 min; control for the full effect not named in the record | Potency, µM (doses to about 76.9 µM), for the others: at the highest dose activation (cAMP increase), hits mostly activators; active = well fitted activation curve with a large enough effect; inconclusive = small, poorly fitted or top-dose-only effect, or another doubt; inactive = no such curve, though single readings can be large or run the other way; cell line not stated here;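 note: phosphodiesterase inhibitor Ro 20-1724 added with compounds to block cAMP breakdown; potency is the fitted concentration of half-maximal effect; nearly all actives have a fitted effect of over 60% in size; about a fifth of the inactives were tested at one dose only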
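Cells in DMEM/10% FBS with G418 were pretreated with compounds in DMSO plus […] (300 uM stock) for 30 min at 37C. cAMP was measured by HTRF (cAMP-d2 plus anti-cAMP antibody-K) after 30 min at room temperature.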
Menin-MLL FL inh: displaces fluorescein MLL peptide from human menin; FP activity change, % at 61.4 µM; Fluorescence polarization, fluorescein-MLL peptide displacement from menin; 290,000 tested, under 10 active; inconclusive = falling polarisation curve, or a change in total fluorescence; inactive = total fluorescence flat and polarisation flat or rising; no compound was filed as active; the % refers to the polarisation; negative = inhibition;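 note: % of control where 0% means no effect; inhibitors lower the polarisation; unlabelled MLL peptide was the positive control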
ClpP mod: qHTS Assay for Activators of ClpP; AID 651965, 2013; Potency, µM (series often up to 57.5 µM), for the others: top-dose activity change, negative = active; actives 1.9% (n = 340,000); ATP-dependent Clp protease proteolytic subunit (Bacillus subtilis (strain 168)), P80244; purified B. subtilis ClpP, FRET peptide cleavage, 20 min; active = well fitted falling curve with a large enough effect; inconclusive = small, poorly fitted or top-dose-only effect; inactive = no such curve, though single readings can be large or run the other way; note: potency is the fitted concentration of half-maximal effect; the source files actives as falling curves though it sought activators and does not explain the sign; nearly all actives have a fitted effect of over 65% in size; many hits overshoot -100%
Target sequence (P80244 whole entry, looked up): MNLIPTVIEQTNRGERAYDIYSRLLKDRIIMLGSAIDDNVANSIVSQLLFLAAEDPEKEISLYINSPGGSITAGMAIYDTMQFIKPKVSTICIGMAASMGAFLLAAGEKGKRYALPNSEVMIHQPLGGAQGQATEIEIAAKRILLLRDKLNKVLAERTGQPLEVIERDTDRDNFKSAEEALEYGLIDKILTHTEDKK
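Purified B. subtilis ClpP, 10 microg/mL final in Tris/HCl pH8 with KCl, BSA, glycerol and Tween-20, cleaved an Abz/nitrotyrosine-quenched decapeptide. Fluorescence (ex 320, em 430) was read at 0 and 20 min at room temperature. Delta was normalized to 5.8 microM ADEP and DMSO/no-enzyme controls.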
* hit, by the source's call; ? = inconclusive; / = no result given; & = joins results of further samples; [ ] = another dose, or the depositor's remark.

Order of values – ClpP mod, TRPML1 blocker, gsp antag, Menin-MLL FL inh, gsp ag, TRPML1 ag
CC(C)=C1C2CCC1C(C(=O)NCc1ccccc1)C2C(=O)O (stereo unspecified)
  1.3%, -3.0, -2.5%, -1.0, 1.8%, 0.1
O=C(COC(=O)Cc1cn2ccsc2n1)NCc1ccc2c(c1)OCO2
  -1.3%, 4.2, 1.6%, 2.2, -12.0%, -0.9
COc1ccc(CCNC(=O)CCOc2cc(C)ccc2C)cc1OC
  1.1%, -3.6, -5.4%, /, ?, -0.3
COc1ccccc1-c1nc(C#N)c(N2CCN(c3cccc(Cl)c3)CC2)o1
  ?, 16.4, -7.0%, -0.9, 3.8%, 0.6
Cc1onc(-c2ccccc2)c1C(=O)N/N=C/c1cc2c(cc1Cl)OCO2
  ?, -3.4, -11.5%, 3.7, 0.2%, 2.5
CCOC(=O)C1C(c2ccccc2)NC(=S)NC1(C)O (stereo unspecified)
  /, -2.0, -12.4%, 3.5, 4.6%[15.4 µM], -0.3
CC(C(=O)NCC1CCCO1)n1cc([N+](=O)[O-])cn1 (stereo unspecified)
  0.9%, -3.8, 11.7%, -3.3, ?, 0.9
CCOC(=O)c1ccc(N2C(=O)CC(N3CCN(C/C=C/c4ccccc4)CC3)C2=O)cc1 (stereo unspecified)
  -3.0%, -13.8, -4.8%, 2.6, -9.6%, -0.1
CCOC(=O)c1c(C)[nH]c(C(=O)C(C)OC(=O)c2cnc(C)cn2)c1C (stereo unspecified)
  -1.8%, 6.0, 0.9%, /, -27.3%, 1.2
COc1ccccc1NC(=O)CN1CC(=O)Nc2ccccc21
  /, -11.2, 7.4%, 0.6, -7.5%[15.4 µM], 0.0
CCC(N1CCOC1=O)S(=O)(=O)c1ccc(C)cc1 (stereo unspecified)
  -1.3%, 14.4, -1.4%, 0.1, -5.8%, 0.3
O=[N+]([O-])c1ccccc1NC1CCN(Cc2ccccc2)CC1
  /, 49.1, -2.0%, 0.0, 10.3%[15.4 µM], 4.4
CCCCNCc1cc(OCC)c(OCC(N)=O)cc1Br
  1.3%, 27.3, 9.2%, 0.9, 2.3%, -0.5
COc1ccc(NC(=O)/C(C#N)=C\C=C\c2ccco2)cc1
  -1.8%, -9.2, -10.0%, -2.3, 18.1%, 2.7
CCOc1cc(CNC(=O)c2cc(-c3ccccc3)n[nH]2)cc(OCC)c1OCC
  1.4%, 11.8, /, /, /, 1.6
COCCNC(=O)C1CCCN(C(=O)c2ccnc(Cl)c2)CC1 (stereo unspecified)
  0.3%, 54.7, /, /, /, 0.5
O=C(COC(=O)CNS(=O)(=O)c1ccc2ccccc2c1)Nc1ccc2c(c1)OCO2
  -2.0%, -19.0, -15.8%, 5.2, 4.9%, 1.1
COc1ccc(-n2c(SCC(=O)N3CCCC(C)C3)nnc2-c2cccnc2)cc1 (stereo unspecified)
  -0.6%, -10.3, -5.8%, 0.7, -9.7%[15.4 µM], 0.8
COc1ccc(N(C=O)C(C(=O)Nc2c(C)cccc2C)c2ccccc2)cc1 (stereo unspecified)
  0.4%, 37.7, -6.1%, /, -19.7%, -0.1
CCCc1c(C)c2ccc(O)c(CN3CCN(c4ccc(F)cc4)CC3)c2oc1=O
  4.2%, -12.9, /, /, /, -1.3
COc1ccc(Cl)cc1NC(=O)C(C)n1c(=O)cc(C(F)(F)F)c2c(C)nn(C)c21 (stereo unspecified)
  -8.9%, -6.6, /, /, /, 0.4
CCOc1ccc(-c2nonc2NC(=O)COc2c(C)cc(C)cc2C)cc1OCC
  -11.0%, 22.9, /, /, /, 0.7
COc1ccc(C(=O)C=Cc2ccc3c(c2)OCO3)cc1OC
  -2.1%, 18.6, /, /, 10.3%, 0.2
CC(=O)c1nnn(-c2ccc(F)cc2F)c1C
  /, 22.1, 2.5%, -0.2, -1.7%, 10.2
Cc1cccc(NC(=O)COc2coc(CN3CCN(c4ccccc4)CC3)cc2=O)c1C
  -1.2%, -5.5, -7.9%, /, -6.4%, 1.0
COc1ccc(/C=N/Nc2nc(-c3ccc(C)cc3)c(C#N)c(=O)[nH]2)cc1
  -0.1%, -6.3, -19.4%, 4.6, -0.7%[15.4 µM], 0.1
O=C(COC(=O)c1ccccc1Nc1ccccc1)Nc1ccccc1
  3.2%, -24.9, 5.6%, 4.1, 1.8%, 3.0
CCc1noc(C)c1C(=O)N(C)CC(=O)Nc1ccc(F)c(F)c1F
  0.0%, -22.1, 12.8%, /, -3.9%[15.4 µM], -0.1
COc1cc(OC)cc(C(=O)N[C@H](C(=O)Nc2nc3ccccc3[nH]2)C(C)C)c1
  /, 5.2, ?, -2.5, -0.1%[15.4 µM], 0.3
CC(=O)c1cc(C#N)c(SCc2ccc(F)cc2)nc1C
  2.3%, -12.3, 0.9%, 1.2, 12.7%, 2.5
CCCCn1c(N)c(N(CCC)C(=O)C2CCCC2)c(=O)[nH]c1=O
  0.9%, -3.1, 5.0%, /, ?, 1.3
COc1ccccc1C(=O)C1CCCN(C(=O)Nc2ccccc2F)C1 (stereo unspecified)
  /, -2.0, -0.4%, 0.3, 28.3%, -0.6
Cc1cc(C(=O)Nc2ccc3c(c2)OCCO3)c(C)o1
  1.3%, 3.7, -1.5%, -1.6, 13.8%, 0.0
COc1ccc(C(=O)NCCSCc2ccco2)cc1OC
  0.5%, -3.4, -2.4%, -2.0, -13.6%, -0.4
Cc1ccc(NC(=O)c2cccc(N3CCCS3(=O)=O)c2)cc1C
  1.9%, -2.7, /, /, /, 0.7
Cc1cc(C(=O)OCC(=O)N2CC(=O)Nc3ccccc32)c(C)n1-c1ccccc1
  0.8%, -0.5, 0.3%, 0.4, 16.0%, 2.0
CCN(CC)CCC(=O)Nc1cccc2c1C(=O)c1ccccc1C2=O
  /, 1.8, -0.1%, ?, 11.8%[15.4 µM], -0.1
O=C(CSc1ccccc1)N1CCCC(Nc2ccccc2)C1 (stereo unspecified)
  -1.3%, -12.5, -2.0%, 2.4, 28.0%, 2.0
COc1cc(CNC[C@H]2O[C@@H](n3cc(C)c(=O)[nH]c3=O)C[C@@H]2O)ccc1OCc1cccc(Cl)c1
  -1.4%, -5.0, /, /, 1.9%, -0.1
Cc1nc2nc(CSc3ccc(Cl)cc3)cc(=O)n2[nH]1
  -1.8%, 13.9, -13.5%, 14.5, -1.7%, -0.4
CNC(=O)c1ccsc1NC(=O)c1ccc2c(c1)CCCC2
  ?, 31.0, ?, 4.2, ?, -0.7
CC[C@]12c3[nH]c4ccc(Cl)cc4c3CCN1C(=O)[C@@H](CC(=O)NCc1cccc(C(F)(F)F)c1)C[C@@H]2C(=O)N1CCN(C(=O)c2ccco2)CC1
  2.5%, 8.2, -15.3%, /, /, 5.9
O=C(NCc1cccc(CNC(=O)C(=O)NCC2CCCO2)c1)C(=O)NCC1CCCO1 (stereo unspecified)
  /, 27.1, 17.0%, 0.6, -0.4%[15.4 µM], -0.7
COc1cccc(CSc2nnc(-c3ccc(F)cc3)o2)c1
  0.1%, 0.7, -12.8%, 0.1, ?, 1.8
CCOc1ccc2nc(N3CCCC(C(=O)Nc4ccc(CC)cc4)C3)sc2c1 (stereo unspecified)
  2.3%, 3.3, /, /, /, 0.5
C=CCOC(=O)C(C#N)c1nc2ccccc2nc1N1CCC(C(=O)OCC)CC1 (stereo unspecified)
  0.1%, 5.0, -16.6%, ?, 0.0%, -0.1
CN(C)CCCN(Cc1ccccc1)C(=S)Nc1ccc(SC(F)F)cc1
  4.0%, -1.0, 20.9%, -5.8, -4.9%, 0.4
CCc1cc(C(=O)N2CCN(c3ncc(C(F)(F)F)cc3Cl)CC2)sc1C
  /, -6.0, -34.3%, -1.4, -0.9%, 1.8
Cc1oc2ccc(NS(=O)(=O)c3ccc(F)cc3)cc2c1C(=O)O
  -1.8%, 5.7&-12.1, -21.3%, 2.6, -2.2%, 0.0&0.9
O=C(O)CSc1cc(NS(=O)(=O)c2ccc(Br)cc2)c2ccccc2c1O
  51.2%, -8.7, -0.6%, /, -69.6%[inhibitor], 3.6
COC(=O)C1C(=O)c2c([nH]c(C(=O)OC3CCCCCC3)c2C)CC1C (stereo unspecified)
  -1.8%, 31.7, -13.1%, 0.5, -30.8%, 1.1
O=C(O)c1ccc([N+](=O)[O-])nc1
  -1.7%, -9.3, /, /, 23.1%, 0.7
Cc1cc(C)n2cc(CSc3nc4cc(Cl)ccc4o3)nc2n1
  -28.6%, 32.9, 9.2%, 3.6, 8.8%, -1.2
CSc1ncccc1C(=O)OCC(=O)NC(C)CCc1ccccc1 (stereo unspecified)
  0.3%, -19.8, -6.2%, /, 26.9%, 1.1
CC(C)(C)n1nnnc1C(c1cccnc1)N1CCN(c2ccccn2)CC1 (stereo unspecified)
  -2.3%, 2.2, -1.9%, -5.0, 0.9%, -0.4
CCCCN1C2=NC(c3ccccc3)CN2c2ccccc21 (stereo unspecified)
  /, 2.6, 5.4%, /, -0.2%[15.4 µM], 0.3
Cc1c(NC(=O)c2cc3ccccc3o2)c(=O)n(-c2ccccc2)n1C
  -1.9%, 0.0, 17.2%, -2.8, 11.8%, 0.9
COc1ccc(C2=NOC(C)(c3nnc(-c4ccc(Cl)cc4)o3)C2)cc1 (stereo unspecified)
  -7.2%, -5.4, -5.9%, /, 3.7%, 0.7
Cc1ccc(OCc2nnc(SCC(=O)Nc3ccc4c(c3)OCCO4)n2Cc2ccco2)cc1
  -1.6%, -3.2, -15.6%, -3.9, -69.7%[inhibitor], 1.2
CC(=O)Nc1ccc(C(=O)NCCCSc2ccccc2)cc1
  0.2%, 19.8, 5.8%, /, -10.9%, -0.2

(more compounds)
Order of values – ClpP mod, TRPML1 blocker, gsp antag, Menin-MLL FL inh, gsp ag, TRPML1 ag
CCc1c(C)[nH]n(-c2ccc(Oc3ccccc3)c(S(=O)(=O)O)c2)c1=O
  -10.6%, -1.7, 6.7%, 0.1, ?, -1.2
COc1ccc(NC(=O)C2=CC(c3ccc(C)cc3)=NS(=O)(=O)N2C)cc1OC
  0.6%, 6.9, -24.7%, -1.8, -33.3%[inhibitor], -0.3
O=C(O)CNC(=S)N(Cc1ccccc1Cl)C1CCCC1
  1.4%, -8.4, 2.1%, -4.5, -2.7%, -0.3
COc1ccc(-n2c(=O)[nH]cc(C(=O)N3CCc4ccccc43)c2=O)cc1
  1.5%, 22.2, 4.5%, 1.1, -22.8%, -0.1
COCCNC(=O)CSc1nc2cc3c(cc2c(=O)n1CCCCCC(=O)NCc1ccc(OC)cc1)OCO3
  0.9%, -16.5, /, /, /, 0.9

Source: PubChem BioAssay (National Center for Advancing Translational Sciences (NCATS))

Rows were taken by chance, and some 2.1% of all compounds hit somewhere here.
